Vaccinia mCherry: qHTS for Stage-Specific Inhibitors of Vaccinia Orthopoxvirus: mCherry Reporter Primary qHTS. Vaccinia virus mCherry reporter infection, fluorescence; about a quarter of the inactives have no number. actives 0.63% (n = 310,000). Potency, µM (doses to about 36.5 µM), for inactives: at the top dose activity change, negative = inhibition, hits mostly inhibitors. AID 720579, 2013; active = well fitted inhibition curve with a large enough effect; inconclusive = small, poorly fitted or top-dose-only effect; inactive = no such curve, though single readings can be large or run the other way; tested in A549 cells; further: nearly all actives have a fitted effect of over 35% in size; inactives centre near -10
VACV Venus inh: qHTS for Stage-Specific Inhibitors of Vaccinia Orthopoxvirus: Venus Reporter Primary qHTS | Vaccinia virus Venus reporter expression, fluorescence | Potency, µM (highest dose often 36.5 µM), inactives show at the highest dose activity change, negative = inhibition, hits mostly inhibitors | actives 0.46% (n = 330,000) | AID 720580, 2013; active means well fitted inhibition curve with a large enough effect; inconclusive means small, poorly fitted or top-dose-only effect; inactive means no such curve, though single readings can be large or run the other way; tested in A549 cells; further: nearly all actives have a fitted effect of over 30% in size; inactives centre near -10
The depositor's hits bear a star; i = inactive; ? = inconclusive; nt = not tested or not shown; & = joins results of further samples; [ ] = another dose, or the depositor's remark. On the % scale 0 is the no-effect control and ±100 the full control effect; potency means the concentration at half of the fitted maximal effect.

item | structure | Vaccinia mCherry | VACV Venus inh
1 | O=C(Nc1cc(N2CCOCC2)ncn1)Nc1cccc2ccccc12 | -11.3% | -8.7%
2 | COCCn1c(NC(=S)NC(=O)C2CC2)cc(=O)[nH]c1=O | -4.3% | -14.6%
3 | COc1ccc(C2C(=O)N(C3CCCCCC3)CC(=O)N2Cc2ccccc2)cc1 (centres undefined) | 0.1% | -8.6%
4 | CSCC(C)N1CCC(n2nccc2NC(=O)c2ccc3c(c2)OCO3)CC1 (centres undefined) | i | -12.9%
5 | CN1CCN(C(=O)CN(c2ccccc2)S(=O)(=O)N(C)C)CC1 | -9.9% | -12.4%
6 | CCN(CC)c1ccc(NC(=O)CCN2C(=O)c3ccccc3S2(=O)=O)c(C)c1 | i | 5.2%
7 | CC(=O)c1sc(NC(=O)c2ccc(C)c(C)c2)nc1C | i | -13.3%
8 | Brc1ccc(CSc2nnc(-c3ccco3)o2)cc1 | -6.1% | -18.2%
9 | Cc1ccc(S(=O)(=O)Nc2nncs2)cc1 | i | -3.3%
10 | O=C(NCC1(c2ccccc2)CCCC1)c1cccc(Br)c1 | -9.1% | -24.6%
11 | O=C(NCCCn1ccnc1)c1cc2ccccc2o1 | i | 1.4%
12 | CCOC(=O)C(C)n1nc(/C=C/c2ccc(OC)cc2)ccc1=O (centres undefined) | i | -5.0%
13 | COC(=O)c1cc(NC(=O)c2c(Cl)nc3sccn23)cc(C(=O)OC)c1 | -17.0% | -5.8%
14 | CCN(CC)C(=O)c1cc2c(=O)oc3ccccc3c2s1 | i | -12.5%
15 | COc1ccc(NC(=O)C[C@H]2C(=O)N(c3ccc(Br)cc3)C[C@@H]2C)cc1 | -23.6% | -14.1%
16 | COc1ccc(NC(=O)c2cc(-c3cc(Cl)ccc3C)n[nH]2)cc1OC | i | -13.3%
17 | CCSc1nnc(-c2cc3c(s2)-c2ccccc2CC3)o1 | nt | 5.2%
18 | C/C(CC(=O)Nc1ccc2c(c1)OCO2)=N\NC(=O)c1ccc(N)cc1 | -9.5% | -11.8%
19 | C[C@@H]1CN([C@@H](C)CO)C(=O)CCCn2nncc2CO[C@@H]1CN(C)C(=O)Nc1ccccc1F | i | 3.6%
20 | Cn1ccc2c(-c3cccc4ccccc34)cc3c(c21)C1CCC3O1 (centres undefined) | 15.7% | -9.2%
21 | C/C(=N\Nc1cccc2ccccc12)c1c(O)n(Cc2ccccc2)c(=O)[nH]c1=O | -12.3% | 0.4%
22 | O=C(Cc1ccc(F)cc1)NCc1ccc2c(c1)CCN2C(=O)c1ccc(F)cc1 | -17.3% | -2.5%
23 | COc1ccc(C(=O)NCc2nnc(SCC(=O)Nc3ccccc3OC)o2)cc1 | -15.5% | 1.3%
24 | CCn1c(CCNC(=O)c2ccco2)nc2ccccc21 | -1.4% | -3.3%
25 | CC(=O)N1c2ccc(S(=O)(=O)N3CCCCCC3)cc2CC1C(=O)NCc1ccccc1F (centres undefined) | -17.6% | -17.5%
26 | CCN=c1sc2ccccc2n1CC(O)COc1ccccc1 (centres undefined) | nt | -27.1%
27 | CCCCCN1C(C(=O)c2ccccc2)=C(NC(=O)c2ccc(OC)c(OC)c2)c2ccccc2S1(=O)=O | -17.6% | -7.8%
28 | Cc1cc(=O)n2[nH]c(SCc3c(F)cccc3Cl)nc2n1 | -0.1% | -8.9%
29 | CCCOc1ccc(C(CC(=O)O)NC(=O)Cc2ccccc2)cc1 (centres undefined) | -4.5% | -17.9%
30 | O=[N+]([O-])c1ccc(NC(=S)N/C(=N/CS(=O)(=O)c2ccccc2)c2ccccc2)cc1 | nt | -0.1%

In the list so far, 4 contain an aryl thioether with sulfur outside any ring.
item | structure | Vaccinia mCherry | VACV Venus inh
8 | Brc1ccc(CSc2nnc(-c3ccco3)o2)cc1 | -6.1% | -18.2%
17 | CCSc1nnc(-c2cc3c(s2)-c2ccccc2CC3)o1 | nt | 5.2%
23 | COc1ccc(C(=O)NCc2nnc(SCC(=O)Nc3ccccc3OC)o2)cc1 | -15.5% | 1.3%
28 | Cc1cc(=O)n2[nH]c(SCc3c(F)cccc3Cl)nc2n1 | -0.1% | -8.9%

Structural class: those above with a Cl atom (3)
item | structure | Vaccinia mCherry | VACV Venus inh
13 | COC(=O)c1cc(NC(=O)c2c(Cl)nc3sccn23)cc(C(=O)OC)c1 | -17.0% | -5.8%
16 | COc1ccc(NC(=O)c2cc(-c3cc(Cl)ccc3C)n[nH]2)cc1OC | i | -13.3%
28 | Cc1cc(=O)n2[nH]c(SCc3c(F)cccc3Cl)nc2n1 | -0.1% | -8.9%

The listing continues.
item | structure | Vaccinia mCherry | VACV Venus inh
31 | CC1=CC(=O)CC(C)(C)C1(O)/C=C/C(C)=C\C(=O)O (centres undefined) | -12.7% | -15.2%
32 | Cc1cccc(-c2nc(S(=O)(=O)c3ccc(Cl)cc3)c(N3CCCCCC3)o2)c1 | -10.7% | -12.0%
33 | Cc1cc(=O)oc2cc(OCC(=O)NCCCN3CCOCC3)c(Cl)cc12 | -7.1% | -3.2%
34 | Cc1cccc(N2CC(C(=O)Nc3nnc(SCC(=O)Nc4cc(C)on4)s3)CC2=O)c1 (centres undefined) | -9.6% | 2.9%
35 | CCN(CC)CCNC(=O)C(=O)NCC1OCCN1S(=O)(=O)c1ccc(Cl)cc1 (centres undefined) | -20.5% | -7.3%
36 | COc1ccc(OCCN2CCC(C(=O)NC(c3ccsc3)c3ccccc3C)CC2)cc1 (centres undefined) | 16.2% | -22.5%
37 | COc1ccccc1OCC(=O)Nc1nonc1NC(=O)COc1ccccc1OC | i | 1.5%
38 | Cc1cc(C)c2c(n1)SCC(=O)N2CC(=O)NCCC1=CCCCC1 | 11.2% | 3.4%
39 | CC(C)n1cnc2c(Nc3cccc(F)c3)nc(NCCO)nc21 | ? | ?
40 | COc1cc2cnc(-c3ccsc3)cc2cc1OC | -4.9% | -20.4%
41 | CCOc1ccccc1N1CC(C(=O)N2CCc3ccccc32)CC1=O (centres undefined) | nt | -19.4%
42 | Cc1cccn2c(=O)nc(SCC(=O)N3CC(C)OC(C)C3)nc12 (centres undefined) | -11.6% | -9.6%
43 | Cc1ccc(N(CC(=O)NC2CCCCC2C)S(=O)(=O)c2c(C)nn(C)c2C)cc1 (centres undefined) | -11.0% | -5.8%
44 | Cc1ccc(OCC(=O)Nc2ccc(C)c(S(=O)(=O)N3CCCCCC3)c2)c([N+](=O)[O-])n1 | ? | ?
45 | CSc1nnc(C)c(=O)n1COC(=O)COc1ccccc1C | -20.7% | -17.7%
46 | O=C(/C=C/c1ccccc1)Nc1cc(-c2nc3ccccc3o2)ccc1Cl | 5.1% | 6.3%
47 | Cc1ccc2nc(-c3ccc(-c4cccc(Cl)c4)cc3)c(NCc3ccccc3)n2c1 | -7.4% | -24.1%
48 | Cc1c(C(=O)Nc2ccncc2)sc2nc(-c3ccccc3)cn12 | -4.0% | ?
49 | CC(=O)c1cc(C#N)c(N2CCCCC2)nc1C | -13.3% | -10.3%
50 | O=C(O)c1ccccc1C(=O)c1cccc2ccccc12 | -9.5% | 1.1%
51 | Cc1ccc(NC(=O)[C@@H](c2ccccc2)N2Cc3ccccc3C2=O)cc1F | -7.4% | -2.9%
52 | Cc1nc([N+](=O)[O-])c(Br)n1CC(=O)c1ccc(F)cc1 | ? | ?
53 | C[C@H]1CN(Cc2ccccc2)C(=O)[C@@H]1CC(=O)NCc1ccccc1 | i | -9.5%&-10.1%
54 | CCCCn1c(C2CCCCC2)nc2cc3[nH]c(=O)c(C(C)C)nc3cc21 | -3.4% | -22.4%
55 | CCOC(=O)C(C(=O)OCC)C1CS(=O)(=O)CC1C(C(=O)OCC)C(=O)OCC (centres undefined) | -10.9% | -4.8%
56 | Cc1noc(C)c1COc1ccc(C(=O)OCC(=O)c2ccc3c(c2)OCCO3)cc1 | -10.5% | 2.5%
57 | COc1cc(OC)c(C(=O)CCCCN2CCC3(CC2)NC(=O)NC3=O)cc1NS(=O)(=O)c1ccc(C(F)(F)F)cc1 | -15.3% | -9.1%
58 | Clc1ccc2[nH]c3c(NCCN4CCOCC4)ncnc3c2c1 | i | -19.9%
59 | Fc1ccc(-c2nc(-c3cccs3)no2)cc1 | -12.2% | 0.0%
60 | Cc1ccccc1NS(=O)(=O)c1ccc(C(=O)N2CCN(c3ccccc3O)CC2)cc1 | -8.1% | -22.4%
61 | CCN(CC)CCCNC(=O)Cn1nc(N2CCN(c3ccccc3OC)CC2)ccc1=O | 0.4% | 2.6%
62 | Cc1cc(C)cc(NC(=O)Nc2ccc(-n3ccc(C(F)(F)F)n3)cc2)c1 | -4.6% | ?
63 | COC(=O)c1c(NC(=O)CN2CCN(c3ccccc3Cl)CC2)sc(C)c1C | -14.4% | 9.2%
64 | COC(=O)[C@H](C)NC(=O)NC1CCN(Cc2ccccc2)CC1 | i | -5.0%
65 | C1CN(CC23CC4CC(CC(C4)C2)C3)CCO1 | nt | -25.9%
66 | CCCSc1ncccc1C(=O)O | -3.7% | -2.1%
67 | Cc1ccc(Cl)cc1NC(=O)c1ccc2snnc2c1 | 4.1% | 1.9%
68 | Cc1ccc(N2C(=O)CC(N3CCN(S(=O)(=O)c4ccccc4)CC3)C2=O)c(C)c1 (centres undefined) | -24.1% | -12.1%
69 | CC1(C)NC(=O)N(CC(=O)N2CCN(c3cccc(C(F)(F)F)c3)CC2)C1=O | i | -17.1%
70 | O=C(OCC(=O)N1CCN(C(=O)c2ccco2)CC1)c1ccccc1C(=O)c1ccc(Cl)cc1 | -14.7% | -8.0%
71 | CCOC(=O)Nc1ccc2c(c1)nc(CN1CCOCC1)n2C | -9.4% | 12.9%
72 | CN(CC(=O)Nc1ccc(F)cc1)C(=O)COC(=O)/C=C/c1cccs1 | -16.8% | -12.0%
73 | O=c1[nH]c2ccccc2c2ccc(Cl)cc12 | i | 1.7%
74 | O=C(NNC(=O)c1cnccc1C(F)(F)F)c1ccc(Cl)cc1 | -16.0% | -9.4%
75 | Cn1cc(C(=O)NCCc2ccccc2)c(=O)c2cc(S(=O)(=O)N3CCCCC3)ccc21 | -11.1% | -9.5%
76 | Cc1ccc(CN2C(=O)CCC2C(=O)NCCCN2CCC(C)CC2)cc1 (centres undefined) | -14.0% | 3.2%
77 | COc1cccc(C2=NOC(C(=O)NCc3cccnc3)C2)c1 (centres undefined) | -13.9% | -16.2%
78 | Cc1ccc(NC(=O)C2C3C=CC4(O3)C2C(=O)N(CCCN2CCCC(C)C2)C4C(=O)NC2CCCCC2)cc1 (centres undefined) | -6.9% | 2.2%
79 | Cc1cc(C)cc(C(=O)NCC(=O)OCc2cc([N+](=O)[O-])cc3c2OCOC3)c1 | i | -2.1%
80 | O=C(CCn1ccc2cc(S(=O)(=O)N3CCCC3)ccc21)NCc1cccc(F)c1 | -2.6%[7.34 µM] | -1.1%[7.34 µM]
81 | COc1ccc(N=C(N(C)C)P(=O)(N(C)C)N(C)C)cc1 | -4.2% | 1.3%&-10.5%
82 | Oc1ccccc1CNc1ncc(Br)cc1Br | nt | -15.6%
83 | O=C1CC(C(=O)NCc2ccccc2)C2(CCCC2)O1 (centres undefined) | ? | -11.5%
84 | CC(C)(O)C(=O)NNC(=S)Nc1ccc(F)c(Cl)c1 | 5.8% | 1.7%
85 | OC(c1ccccc1)(c1ccccc1)C1CN2CCC1CC2 (centres undefined) | i | -13.1%
86 | CCc1cccc(C)c1NC(=O)CSc1nc2c(c(=O)[nH]1)CCC2 | -4.7% | -10.8%
87 | Cc1ccc(-n2c(=O)c3c(c4cc(C)ccc4n3C)n(CC(=O)Nc3cc(C)cc(C)c3)c2=O)cc1 | -15.8% | -4.6%
88 | COc1ccc(OC)c(NC(=O)c2cc(C3CC3)nc3c2c(C)nn3-c2ccc(C)cc2)c1 | -5.6% | -9.5%
89 | O=c1[nH]c2ccccc2n1CCCSc1cnc2ccccc2n1 | nt | -24.4%
90 | O=C(COC(=O)c1ccccc1Br)Nc1nnc(-c2ccccc2)o1 | i | -13.6%
91 | Cc1ccc(S(=O)(=O)NCC(=O)OCC(=O)N2CCc3ccccc32)cc1 | i | -6.0%

Profiles as entered above.
`O=C1CC(C(=O)NCc2ccccc2)C2(CCCC2)O1` (centres undefined) in the list: Vaccinia mCherry: ?; VACV Venus inh: -11.5%
`Oc1ccccc1CNc1ncc(Br)cc1Br` in the list: Vaccinia mCherry: nt; VACV Venus inh: -15.6%
`O=C(COC(=O)c1ccccc1Br)Nc1nnc(-c2ccccc2)o1` in the list: Vaccinia mCherry: i; VACV Venus inh: -13.6%

The order is random. Share with any hit: about 0.87%.
